Mtb H37Rv – Mycobacterium tuberculosis H37Rv growth inhibition, cell based, confirmatory dose response (AID 1949) | M. tuberculosis H37Rv growth inhibition | most inactive calls were filed without a number and no value below 0 was filed | inhibition, % at 10 µg/mL; hits with a dose series show IC50 in µg/mL | 100,000 compounds, 1.6% hits;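 active means confirmed in a dose series; inconclusive means about 50% or more but not retested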;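 further: bacteria grown 7 days with compound before Alamar blue readout; 0% = untreated bacteria and 100% = reference antibiotic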
* hit, by the source's call. Not all compounds are listed; count on the stated rates, not on these rows.

What do the screens show for `Cc1c(OC(=O)C(C)C)ccc2c(=O)c(-c3nc4ccccc4s3)c(C(C)C)oc12`?
Mtb H37Rv: 9%

What do the screens show for `COc1cccc(CNc2ccc(N3CCCCC3)cc2)c1OC`?
Mtb H37Rv: inactive

What do the screens show for `O=C(Cc1nc(-c2cc3ccccc3oc2=O)cs1)Nc1ccccc1`?
Mtb H37Rv: inactive

Results for Cc1sc(NC(=O)Nc2ccccc2)c(C(N)=O)c1C ?
Mtb H37Rv: inactive

What do the screens show for `CCN(CC)S(=O)(=O)c1ccc(Br)c(OC)c1`?
Mtb H37Rv: inactive

Results for Cc1ccc(O)c(NC(=S)NC(=O)c2ccc(-c3ccccc3[N+](=O)[O-])o2)c1 ?
Mtb H37Rv: inconclusive

What do the screens show for `Oc1ccccc1CNc1ccc(C2CCCCC2)cc1`?
Mtb H37Rv: inconclusive

Results for CC(C)c1cc(NS(=O)(=O)c2ccc3ccccc3c2)cc(C(C)C)c1O ?
Mtb H37Rv: 7%

Results for Cc1ccc(SCc2nc(-c3ccccn3)no2)cc1 ?
Mtb H37Rv: inactive

Results for CCc1cccc(OCCCCNCCN)c1 ?
Mtb H37Rv: inactive

What do the screens show for `CCC1CCc2c(sc(NC(=O)c3ccc([N+](=O)[O-])c(C)c3)c2C(N)=O)C1` (stereo not given)?
Mtb H37Rv: inactive

What do the screens show for `O=C(NCC12CC3CC(CC(C3)C1)C2)NC1CCCCC1`?
Mtb H37Rv: inactive

How did CCC(C(=O)Nc1ccc(C)cc1[N+](=O)[O-])c1ccccc1 (stereo not given) do in these assays?
Mtb H37Rv: 2%

How did Cc1ccc(S(=O)(=O)N(CC(=O)NCCSCc2ccccc2)c2ccccc2)cc1 do in these assays?
Mtb H37Rv: inactive

How did Cc1cccc(C(=S)N2CCN(C(c3ccccc3)c3ccccc3)CC2)c1 do in these assays?
Mtb H37Rv: inactive

What do the screens show for `CCOC(=O)c1c(NC(=O)C2CC3CCC2C3)sc(C(N)=O)c1C` (stereo not given)?
Mtb H37Rv: 5%

Results for O=C(c1cccs1)N1CCN(Cc2ccccc2[N+](=O)[O-])CC1 ?
Mtb H37Rv: inactive

Results for Cc1cc(C(=O)Nc2sc(C(=O)OC(C)C)c(C)c2C(=O)OC(C)C)ccc1[N+](=O)[O-] ?
Mtb H37Rv: inactive

How did CCCOc1ccc(NC(=O)C(=O)NCC(C)c2ccccc2)cc1 (stereo not given) do in these assays?
Mtb H37Rv: inactive

Results for COC(=O)COc1ccc2cc(-c3ccc(Cl)cc3)c(=O)oc2c1 ?
Mtb H37Rv: 19µg/mL*

Results for CCOC(=O)C(=O)CC(=O)c1ccc(Cl)cc1 ?
Mtb H37Rv: inactive

Results for CCOC(=O)N1CCN(C(=O)CN2C(=O)c3cccc4cccc2c34)CC1 ?
Mtb H37Rv: inactive

How did Cc1ccnc(NCc2ccc(Cl)cc2)c1 do in these assays?
Mtb H37Rv: 5%

How did O=C(c1ccc2snnc2c1)N1CCN(c2ccccn2)CC1 do in these assays?
Mtb H37Rv: inactive

Results for Cc1cc(N)n(C2CCOC(C)(C)C2)n1 (stereo not given) ?
Mtb H37Rv: inactive

What do the screens show for `CCOC(=O)c1c(Nc2ccccc2N)cc(C)nc1C`?
Mtb H37Rv: inactive

Results for O=C(CCSc1nnc2ccc3ccccc3n12)Nc1ccc(F)cc1 ?
Mtb H37Rv: inactive

Results for C=CCc1ccc(OC(=O)NC2CCCCC2)c(OC)c1 ?
Mtb H37Rv: 7%

Results for CCC(C(=O)NC1CCN(C)CC1)c1ccccc1 (stereo not given) ?
Mtb H37Rv: inactive

What do the screens show for `COc1ccccc1NC(=O)C1=C(C)NC(=O)NC1c1ccccc1C` (stereo not given)?
Mtb H37Rv: inactive

How did COCCCNCCCOc1ccccc1-c1ccccc1 do in these assays?
Mtb H37Rv: inactive

What do the screens show for `CC(C)n1c(-c2ccc(C(C)(C)C)cc2)n[nH]c1=S`?
Mtb H37Rv: inactive

How did CC(C)c1ccc(OCC(=O)N(Cc2ccccc2)C(C)(C)C)cc1 do in these assays?
Mtb H37Rv: 5%

What do the screens show for `CCc1ccc(OCC(=O)Nc2nc(C)cc(C)n2)cc1`?
Mtb H37Rv: inactive

What do the screens show for `CCN1CCN(C(=O)CSCc2ccc(Br)cc2)CC1`?
Mtb H37Rv: inactive

What do the screens show for `CCOC(=O)c1ccc(NC(=O)COc2cc(C)c(Br)c(C)c2)cc1`?
Mtb H37Rv: inactive

Results for COc1ccc(N2CCN(C(=O)c3sc4ccccc4c3Cl)CC2)cc1 ?
Mtb H37Rv: 2%

Results for CCOc1ccc(NC(=O)CCC(=O)c2ccc(Br)cc2)cc1 ?
Mtb H37Rv: inactive

Results for Nc1nc(Nc2ccccc2)nc2ccccc12 ?
Mtb H37Rv: 2%

How did Cc1n[nH]c(C)c1SCC(=O)Nc1ccc(F)cc1 do in these assays?
Mtb H37Rv: 0%

Results for CC(C)COc1ccc(C(=O)NC2CCS(=O)(=O)C2)cc1 (stereo not given) ?
Mtb H37Rv: inactive

How did NS(=O)(=O)c1ccc(CNC(=O)c2ccc(Cl)s2)cc1 do in these assays?
Mtb H37Rv: inactive

How did CSc1cccc(NC(=O)CN(C2CCCCC2)S(=O)(=O)c2ccc(F)cc2)c1 do in these assays?
Mtb H37Rv: 0%

What do the screens show for `C=CCn1c(C)c(C(C)=O)c(N2CCOCC2)nc1=S`?
Mtb H37Rv: inactive

How did CCCCC(Sc1nc(C)cc(C)n1)C(=O)O (stereo not given) do in these assays?
Mtb H37Rv: 2%

Results for CCCC(=O)Nc1cc2c(cc1C(C)=O)OCCO2 ?
Mtb H37Rv: 7%

Results for Cc1ccc(NC(=S)Nc2ccccc2Oc2ccccc2)cc1 ?
Mtb H37Rv: inactive

How did O=C1CC(N2CCN(c3ccccc3F)CC2)C(=O)N1c1cccc(C(F)(F)F)c1 (stereo not given) do in these assays?
Mtb H37Rv: inactive

Results for COc1cccc(OC)c1C(=O)Nc1ccc2c3c(cccc13)CC2 ?
Mtb H37Rv: inconclusive

How did O=C(Nc1cccnc1)c1ccc(Cl)c(Cl)c1 do in these assays?
Mtb H37Rv: inactive

Results for COc1ccc(C(=O)CSc2nnc(-c3ccccc3)o2)cc1 ?
Mtb H37Rv: 1%

Results for O=C(N1CCOCC1)C(F)(F)C(F)(F)OC(F)(F)F ?
Mtb H37Rv: inactive

What do the screens show for `COC(=O)C1=C(C)NC2=C(C(=O)CC(c3ccccc3)C2)C1c1cc(Cl)c(O)c(OC)c1` (stereo not given)?
Mtb H37Rv: inactive

Results for S=C1NC(C23CC4CC(CC(C4)C2)C3)=CC(c2ccc(Cl)cc2)N1 (stereo not given) ?
Mtb H37Rv: 3%

How did COc1ccc(-c2noc(CN(C)S(=O)(=O)c3ccc(Cl)cc3)n2)cc1OC do in these assays?
Mtb H37Rv: inactive

What do the screens show for `Fc1ccc(CSc2nnnn2-c2ccccc2F)cc1`?
Mtb H37Rv: 5%

What do the screens show for `Cc1ccc(N(CC(O)Cn2c3ccccc3c3ccccc32)S(C)(=O)=O)c(C)c1` (stereo not given)?
Mtb H37Rv: 4%

What do the screens show for `N#Cc1ccccc1CSc1nnc(NC(=O)c2ccccc2Br)s1`?
Mtb H37Rv: inactive

Results for CCCC(=O)c1cc(-c2nc3ccccc3n2C)n(C)c1 ?
Mtb H37Rv: inactive

Results for Cc1nc(NC(=O)c2ccc(OCc3ccccc3)cc2)ccc1Br ?
Mtb H37Rv: 2%

How did COc1ccc(Cl)cc1N(CC(=O)Nc1ccccc1Sc1ccccc1)S(C)(=O)=O do in these assays?
Mtb H37Rv: 8%

Results for O=C(NCc1cccs1)C1CC(c2cccc(Br)c2)=NO1 (stereo not given) ?
Mtb H37Rv: inactive

How did O=C1CCCC(O)=C1C1=NC2(CCCCCC2)Cc2ccccc21 do in these assays?
Mtb H37Rv: inactive

Results for CCn1c(C)c(/C=C(/C#N)c2ccc(C#N)cc2)c2ccccc21 ?
Mtb H37Rv: inactive

What do the screens show for `O=[N+]([O-])c1ccc(N2CCN(S(=O)(=O)c3ccccc3)CC2)cc1NCC1CCCO1` (stereo not given)?
Mtb H37Rv: inactive

Results for CCC(NC(=O)c1ccc(Cl)s1)c1ccccc1 (stereo not given) ?
Mtb H37Rv: inactive

How did O=C(NNC(=S)NCc1ccc(F)cc1)c1ccccc1-n1cccc1 do in these assays?
Mtb H37Rv: 3%

How did CC(Oc1ccccc1)C(=O)NC1=NCCS1 (stereo not given) do in these assays?
Mtb H37Rv: 0%

What do the screens show for `Cc1ccc2nc(-c3ccc(Br)cc3)oc(=O)c2c1`?
Mtb H37Rv: inactive

What do the screens show for `CCCNC(=O)c1ccccc1NC(=O)CN1C(=O)c2cccc3cccc1c23`?
Mtb H37Rv: inactive

What do the screens show for `CCOc1ccccc1N(CC(=O)Nc1cccc(C)c1C)S(=O)(=O)c1ccccc1`?
Mtb H37Rv: inactive

What do the screens show for `COc1ccccc1NC(=O)CSc1nnc(-c2ccccc2)n1-c1cccc(C)c1`?
Mtb H37Rv: inactive

What do the screens show for `CC(C)NCCCCOc1ccc(Br)cc1Cl`?
Mtb H37Rv: inactive

How did COc1cccc2cc(-c3nnc(Nc4cc(C(F)(F)F)ccc4Cl)s3)c(=O)oc12 do in these assays?
Mtb H37Rv: inactive

Results for O=C(Nc1ccc(Br)cc1Cl)NC1CCN(Cc2ccccc2)CC1 ?
Mtb H37Rv: inactive

Results for COc1ccc(OCc2n[nH]c(=S)n2-c2ccccc2)cc1 ?
Mtb H37Rv: inactive

What do the screens show for `N#C/C(=C\c1ccc(-c2ccc(Cl)c(Cl)c2)o1)C(N)=S`?
Mtb H37Rv: inactive

What do the screens show for `COCCNCCCOc1cc(C)cc(C(C)C)c1`?
Mtb H37Rv: inactive

How did C=CCn1c(SCC(=O)c2ccc(Cl)s2)nc2ccccc2c1=O do in these assays?
Mtb H37Rv: 3%

Results for COC(=O)c1ccccc1OCC(O)Cn1cnc2cc(C)c(C)cc21 (stereo not given) ?
Mtb H37Rv: inactive

What do the screens show for `CC(C)(C)c1ccc(C(=O)NC(=S)NCC2CCCO2)cc1` (stereo not given)?
Mtb H37Rv: inconclusive

Results for CCc1cc2c(NCc3ccco3)ncnc2s1 ?
Mtb H37Rv: inactive

Results for CC(C(=O)Oc1ccccc1Cl)N1C(=O)C2C3C=CC(C4CC34)C2C1=O (stereo not given) ?
Mtb H37Rv: inactive

What do the screens show for `Cc1ccc2c3c([nH]c2c1)C(=O)CC(C)(C)S3`?
Mtb H37Rv: inactive

What do the screens show for `COc1ccccc1OCc1n[nH]c(=S)n1C`?
Mtb H37Rv: inactive

What do the screens show for `Cc1ccccc1NC(=O)CN(c1c(C)n(C)n(-c2ccccc2)c1=O)S(=O)(=O)c1ccccc1`?
Mtb H37Rv: inactive

What do the screens show for `CCOC(=O)c1ccc(NC(=S)N2CCN(Cc3cccc(OC)c3)CC2)cc1`?
Mtb H37Rv: inactive

What do the screens show for `Cc1cc(C(=O)c2ccccc2)ccc1OC(=O)c1ccco1`?
Mtb H37Rv: 1%

Results for COc1ccc(Br)cc1CNCc1cccs1 ?
Mtb H37Rv: inactive

What do the screens show for `COc1ccc(Cl)cc1S(=O)(=O)Nc1ccc(Cl)cn1`?
Mtb H37Rv: inactive

Results for O=C(CCN1C(=O)c2cccc3cccc(c23)C1=O)N1CCN(c2ccc(F)cc2)CC1 ?
Mtb H37Rv: inactive

How did O=C(OCc1c(F)cccc1Cl)c1ccco1 do in these assays?
Mtb H37Rv: inactive

How did O=C(NCc1cccs1)C1CC(c2ccccc2O)=NO1 (stereo not given) do in these assays?
Mtb H37Rv: 0%

Results for CCOCCC(=O)N1CCc2ccccc2C1 ?
Mtb H37Rv: inactive

What do the screens show for `CSc1nc(C)cc(SCC(=O)Nc2ccccc2)n1`?
Mtb H37Rv: inactive

How did c1ccc(COc2ccc(Oc3nc(-c4cccnc4)nc4ccccc34)cc2)cc1 do in these assays?
Mtb H37Rv: 1%

Results for COc1cc(C(=O)N2CCN(C(=O)c3c(OC)cccc3OC)CC2)cc(OC)c1OC ?
Mtb H37Rv: inactive

What do the screens show for `CC(=O)c1cccc(NC(=O)C2CCC2)c1`?
Mtb H37Rv: 1%

What do the screens show for `O=C(Nc1cccc(Cl)c1)c1c(Br)sc2c1CCCC2`?
Mtb H37Rv: inactive

What do the screens show for `CN1CCN(CC(=O)Nc2cccc(Cl)c2)CC1`?
Mtb H37Rv: inactive

How did COc1cc(OC)c(NC(=O)COc2ccc(Br)c(C)c2)cc1Cl do in these assays?
Mtb H37Rv: inactive

How did O=C(c1ccc2c(c1)C1C=CCC1C(c1ccc([N+](=O)[O-])cc1)N2)N1CCCC1 (stereo not given) do in these assays?
Mtb H37Rv: inactive

What do the screens show for `O=C(Nc1cc(Cl)c(Cl)cc1Cl)C1CC2CCCC(C1)C2=O` (stereo not given)?
Mtb H37Rv: inactive

How did COC(=O)C1=C(C)NC(=O)NC1c1cc(Br)c(OCc2ccccc2)c(OC)c1 (stereo not given) do in these assays?
Mtb H37Rv: inactive

Source: PubChem
